High-throughput results as filed in PubChem.
Biofilm kill mix: mixture kills Candida albicans biofilm cells; C. albicans biofilm persisters + clotrimazole, fluorescence viability; primary screen in compound mixtures of four per well; inhibition, % at 7.6 µM; hit rate 0.02% among 120,000;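 active = inhibition above 30.3% in the primary screen of four-compound pools, then above 30% when the compound was retested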;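 note: compounds exposed to preformed 24 h biofilms for 48 h; the number belongs to the whole pool; some results filed as inactive read as strong as hits; inactives centre near 12; 0% = biofilm with clotrimazole alone and 100% = kill control; retested singly at about 60 µM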
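Test system: C. albicans CAF4-2 wild-type biofilms; buffer or medium: RPMI/MOPS medium, pH 7.0; schedule: 24 h biofilm formation, then 48 h compound exposure, 37 °C; detection: Alamar Blue fluorescence; measure: percent inhibition of biofilm viability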
* marks the source's active call; other numbers are inactive results.

| structure | Biofilm kill mix |
| --- | --- |
| CNC(=O)CC1C(=O)N(Cc2ccccc2)C(=S)N1NC(=O)c1cccc(F)c1 (stereo not given) | 10 |
| COCCSc1nc(N)c(NC(=O)c2ccc(OC)cc2)c(=O)[nH]1 | 11 |
| COc1ccc(COc2cc(-c3cccc(OC)c3)nc3ccc(NC(C)=O)cc23)cc1 | 17 |
| O=C(N/C(=C/c1ccc(Br)cc1)C(=O)N1CCCC1=O)c1ccco1 | 12 |
| CCOC(=O)C1=C(O)/C(=C\c2cc(C)n(-c3ccc(F)cc3)c2C)N=C1C | 13 |
| O=C(Cc1ccccc1[N+](=O)[O-])NCc1ccc(Cl)cc1Cl | 31 |
| Oc1ccccc1CNc1cccc2cccnc12 | 5 |
| COc1ccccc1OCc1nc(C#N)c(N2CCCC2)o1 | 5 |
| O=C1CCN(C2CCN(Cc3nc(Cc4ccccc4F)no3)CC2)CCN1 | 3 |
| O=C(O)CC12CC3CC(C1)CC(n1cncn1)(C3)C2 | 18 |
| CSc1nc(-c2ccc(Cl)cc2)nn1S(=O)(=O)c1ccc(Cl)cc1 | 13 |
| Cc1cc(NC(=O)CSc2ncccc2C(=O)O)no1 | 7 |
| O=C(Oc1cccc(-n2cnnn2)c1)c1ccccc1Cl | 17 |
| Cc1ccc(S(=O)(=O)N2CCCCC2)cc1NC(=O)C1CCCO1 (stereo not given) | 2 |
| CN(N=Nc1cccc([N+](=O)[O-])c1)c1cccc([N+](=O)[O-])c1 | 15 |
| Cn1ncc(Cl)c1C(=O)Nc1nc2ccc(Cl)cc2s1 | 10 |
| COc1ccc(C2=C(C=C(C#N)C#N)C(c3ccccc3C)c3ccccc3O2)cc1OC (stereo not given) | 12 |
| COc1cc(NC(=O)c2cnc(N)o2)cc(C(=O)Nc2cccc(C(F)(F)F)c2)c1 | 15 |
| COc1ccc2c(c1OC)C(=O)N(c1ccc(C)cc1)C2 | 14 |
| CCC[C@@H](NS(=O)(=O)c1ccc(C)cc1)C(=O)Oc1ccc2c3c(c(=O)oc2c1)CCC3 | 9 |
| O=C(NN=C1C2CC3CC(C2)CC1C3)c1ccccc1O | 15 |
| O=C(c1ccc(S(=O)(=O)N2CCc3ccccc3C2)cc1)N1CCCCC1 | 8 |
| COc1ccc(S(=O)(=O)N2CCOCC2)cc1NC(=O)[C@@H]1CCCN1C(=O)c1cccs1 | 13 |
| COc1ccc(NS(=O)(=O)c2cccc(NC(=O)c3ccc(Cl)nc3)c2)cc1 | 12 |
| O=C(/C=C/c1ccc(F)cc1)c1cc(Br)ccc1O | 20 |
| O=C(Nc1nc2c(s1)CCc1ccccc1-2)c1cccs1 | 10 |
| Cc1sc2ncnc(NCCCN3CCCC3=O)c2c1C | 11 |
| COc1cccc(NC(=S)NCc2ccccn2)c1 | 22 |
| CC(=O)NC1(C(F)(F)F)C(=O)Nc2c1c(=O)[nH]c(=O)n2CC(C)C (stereo not given) | 10 |
| Nc1cc(=O)[nH]c(SCC(=O)N2CCCCC2)n1 | 9 |
| CCN(CC)C(=O)C1CCCN(C(=S)Nc2cccc3ccccc23)C1 (stereo not given) | 8 |
| COc1ccc(C2CC(c3ccccc3)=NN2S(=O)(=O)c2ccccc2)cc1 (stereo not given) | 7 |
| COc1ccc(-n2c(O)c(/C=N/NS(=O)(=O)c3cccc([N+](=O)[O-])c3)c3ccccc3c2=O)cc1OC | 14 |
| Cc1cccc(NCC(=O)N/N=C\c2cccc(Oc3ccccc3)c2)c1 | 15 |
| N=C(N)c1ccc(O)cc1 | 10 |
| CC(Oc1ccc(Cl)cc1Cl)c1ccnc(N)n1 (stereo not given) | 12 |
| Cc1ccc(-c2cn3nc(-c4ccccc4)c(-c4ccccc4)nc3n2)cc1 | 29 |
| O=C(O)Cc1ccc(NCc2ccccc2Cl)cc1 | 17 |
| Cc1nccn1CC(=O)N/N=C/c1cccs1 | 10 |
| CC1=NNC(=O)C1CCC(=O)N/N=C/c1ccccc1 (stereo not given) | 12 |
| COC(=O)c1ccc(OC)c(OC)c1Cl | 14 |
| O=C(Nc1ccc(S(=O)(=O)N2CCCCC2)cc1)c1ccc(CN2CCOCC2)cc1 | 6 |
| CN(C)/C=N/n1cnc2ccccc2c1=O | 3 |
| COCCN(Cc1ccccc1)C(=S)Nc1ccc(Cl)cc1 | 15 |
| NC(=O)C1(N2CCCCC2)CCN(C(=S)Nc2cc(F)cc(F)c2)CC1 | 14 |
| Cc1cccc(NC(=O)NCc2ccccn2)c1 | 15 |
| Nc1nc(SCC(=O)Nc2cccc(Oc3ccccc3)c2)n[nH]1 | 8 |
| C/C(=N\Nc1nc2ccccc2[nH]1)c1ccc(Cl)s1 | 19 |
| C/C(=N\NC(=O)C(=O)Nc1cc(Cl)ccc1Cl)c1ccncc1 | 7 |
| Cc1c(C2=CCN(S(=O)(=O)c3ccc(Br)cc3)CC2)c2ccccc2n1C | 13 |
| O=C(N/N=C/c1ccccc1OCc1ccccc1Cl)c1cccnc1 | 9 |
| Cc1cc(C)c(S(=O)(=O)N2CCCOC2CNC(=O)C(=O)NCCCn2ccnc2)c(C)c1 (stereo not given) | 12 |
| COc1ccccc1-c1c(C(F)(F)F)oc2cc(OCC(=O)Nc3cc(C)ccc3C)ccc2c1=O | 7 |
| CCOC(=O)c1cnc2ccccc2c1Nc1cccc(C(=O)O)c1 | 7 |
| COC(=O)NNC(=O)c1ccc(Cl)cc1Cl | 5 |
| COc1ccc(NC(=O)CC2SC3=NCCN3C2=O)cc1 (stereo not given) | 11 |

The list continues.
| structure | Biofilm kill mix |
| --- | --- |
| COc1ccc(CC(=O)Nc2cccc(C)n2)cc1OC | -3 |
| O=C(Nc1ccc(F)cc1F)C1(c2cccs2)CCOCC1 | 14 |
| O=C(COC(=O)CNC(=O)c1ccc(Cl)cc1)Nc1ccc2c(c1)OCCO2 | -6 |
| O=S(=O)(/C=C/c1ccccc1)NCc1ccccc1Cl | 15 |
| CCOC(=O)Cc1csc(NC(=O)CN2C(=O)c3ccccc3C2=O)n1 | 15 |
| O=C(Nc1ccc(SC(F)(F)F)cc1)c1ccccn1 | 16 |
| C/C(=N\NC(=O)CC#N)C1COc2ccccc2O1 (stereo not given) | 24 |
| Cc1cccc(OCc2nnc(SCC(=O)O)n2Cc2ccccc2)c1 | 6 |
| Cc1cc(C)cc(OCc2nnc(N)s2)c1 | 25 |
| COc1ccc(CCn2c(=O)[nH]c3cc(C(=O)N4CCN(c5ccccn5)CC4)ccc3c2=O)cc1OC | 20 |
| COCC1CCN(Cc2nc(-c3cccs3)no2)C1 (stereo not given) | 16 |
| CCc1ccc(N2C(=O)C3NN=C(C(=O)OCc4ccccc4)C3C2=O)cc1 (stereo not given) | 8 |
| CCOC(=O)CSc1nnc(NC(=O)NC(C)C)s1 | 9 |
| FC(F)(F)c1ccc(-c2nc(=S)[nH][nH]2)cc1 | -3 |
| COc1cc(NC(=O)c2cc(Cl)nnc2Cl)cc(OC)c1OC | 9 |
| Cc1ccc(C)c(/C(O)=C2\C(=O)C(=O)N(CCCn3ccnc3)C2c2cccnc2)c1 (stereo not given) | 16 |
| COC(=O)N/N=C/c1ccc(-c2cccc(Cl)c2)o1 | 12 |
| COc1ccc(NC(=O)Cc2coc3cc(C)c(C(C)C)cc23)cc1S(=O)(=O)N1CCOCC1 | 16 |
| N#Cc1c(Cl)cccc1Oc1ccc(S(=O)(=O)Nc2ccccc2)cc1 | 22 |
| CC(=O)c1cccc(NC(=O)CO/N=C2/CCCc3nonc32)c1 | 8 |
| Cc1cc(C(=O)COC(=O)c2ccc[nH]c2=O)c(C)n1-c1ccccc1F | 21 |
| Cc1ccc(-n2cc(CNCCCn3ccnc3C)c(-c3ccc(F)cc3)n2)cc1 | 12 |
| Cc1cc(C)n2nc(C(=O)N/N=C/c3ccco3)nc2n1 | 21 |
| COc1ccc(C2c3c(-c4ccccc4O)n[nH]c3C(=O)N2Cc2ccco2)cc1OC (stereo not given) | 16 |

Next section; it opens with the 7 that closed the last part.
| structure | Biofilm kill mix |
| --- | --- |
| COc1ccc(NC(=O)Cc2coc3cc(C)c(C(C)C)cc23)cc1S(=O)(=O)N1CCOCC1 | 16 |
| N#Cc1c(Cl)cccc1Oc1ccc(S(=O)(=O)Nc2ccccc2)cc1 | 22 |
| CC(=O)c1cccc(NC(=O)CO/N=C2/CCCc3nonc32)c1 | 8 |
| Cc1cc(C(=O)COC(=O)c2ccc[nH]c2=O)c(C)n1-c1ccccc1F | 21 |
| Cc1ccc(-n2cc(CNCCCn3ccnc3C)c(-c3ccc(F)cc3)n2)cc1 | 12 |
| Cc1cc(C)n2nc(C(=O)N/N=C/c3ccco3)nc2n1 | 21 |
| COc1ccc(C2c3c(-c4ccccc4O)n[nH]c3C(=O)N2Cc2ccco2)cc1OC (stereo not given) | 16 |
| Cc1ccc(NC(=S)N/N=C2/CCCCc3ccccc32)cc1 | 10 |
| Cc1nc(N2CCN(C(=O)c3ccco3)CC2)c2c3c(sc2n1)CC(C)CC3 (stereo not given) | 2 |
| CC(=O)N(CC(=O)O)c1ccccc1 | 7 |
| CCc1cccc(Nc2cnn(C34C[C@@H]5C[C@@H](CC(CC(=O)O)(C5)C3)C4)c(=O)c2Cl)c1 | 15 |
| CC(C)n1nnnc1-c1ccc(Cl)cc1 | -4 |
| O=C(NCc1ccccc1)c1cccc(COc2ccc3c(c2)CCC3)c1 | 22 |
| O=C(NC(=S)Nc1ccc(N2CCCCC2)cc1)c1ccc2c(c1)OCCO2 | 9 |
| Cc1ccccc1C(=O)NNC(=O)c1cc(N)cc([N+](=O)[O-])c1 | -2 |

Exported with each value named: part of the list above
O=C(NC(=S)Nc1ccc(N2CCCCC2)cc1)c1ccc2c(c1)OCCO2
  Biofilm kill mix: 9

CC(=O)N(CC(=O)O)c1ccccc1
  Biofilm kill mix: 7

Cc1ccccc1C(=O)NNC(=O)c1cc(N)cc([N+](=O)[O-])c1
  Biofilm kill mix: -2

O=C(NCc1ccccc1)c1cccc(COc2ccc3c(c2)CCC3)c1
  Biofilm kill mix: 22

Next structures follow.
mol,Biofilm kill mix
O=S(=O)(CCN1CCCCC1)Oc1ccc(Cl)cc1Cl,19
S=C(NCCc1ccccc1)Nc1ccccc1,2
COc1c(O)cccc1/C=N/NC(=O)Cn1ccnc1C,26
C=CCNC(=S)N/N=C/c1ccc(-c2cccc([N+](=O)[O-])c2)o1,13
Cc1ccc(Cl)c(NC(=O)CN2CCN(C=O)CC2)c1,14
Cc1cccc(-c2nnn3c2nc(NCCc2ccc(S(N)(=O)=O)cc2)c2ccccc23)c1,8
CN(C)S(=O)(=O)c1ccc(NC(=O)C2CC3C=CC2C3)cc1 (stereo not given),6
Cn1cc(S(=O)(=O)Nc2ccc3c(c2)OCCO3)cn1,9
COc1ccc(C2C(C#N)=C(N)N(c3cccnc3)C3=C2C(=O)CC(C)(C)C3)cc1OC (stereo not given),-2
FC(F)(F)c1cc(CCN2C(=S)NC[C@@H]2c2ccccc2)cc(C(F)(F)F)c1,45
CCN(CC)C(C)C(=O)Nc1c2c(cc3c1CCC3)CCC2 (stereo not given),17
CCOC(=O)NC(=O)/C(N=Nc1cc(C)cc(C)c1)=C(\C)O,13
CCCCCCc1cc2cc(C(=O)Nc3ccccc3)c(=O)oc2cc1O,15
CN(c1ccc(OCC(=O)Nc2nc3ccccc3s2)cc1)S(=O)(=O)c1ccccc1,11
CC(C)CN(CC(C)C)c1ccc(/C=N/n2cnnc2)cc1[N+](=O)[O-],6
O=S(=O)(Nc1cccc2c1CCCC2)c1cccc(C(F)(F)F)c1,23
C=CCn1c(SCC(=O)NCCOC)nnc1-c1cc2c(s1)CCC(CC)C2 (stereo not given),16
Cc1noc(C)c1COc1cccc(C(=O)Nc2ccccc2N2CCOCC2)c1,16
COc1cc2c(cc1NC(=O)CSc1nc3ccc(C)cc3[nH]1)oc1ccccc12,10
Cc1onc(-c2ccccc2)c1-c1csc(COc2ccccc2)n1,18
O=C(c1cccc(F)c1)N1CCCC(C(=O)N2CCN(c3ccccc3)CC2)C1 (stereo not given),13
CCCCCCCCCCCC(=O)NC1CCS(=O)(=O)C1 (stereo not given),5
O=C(Nc1ccc(OCc2ccccc2)cc1)c1cccc([N+](=O)[O-])c1,8
Cc1c(N(C)C(=O)c2ccc3c(c2)OCO3)c(=O)n(-c2ccccc2)n1C,12
Nc1cccc(-c2cn3cccnc3n2)c1,14
CC(=O)N=C1SC2CS(=O)(=O)CC2N1c1ccc(-c2nc3ccc(C)cc3s2)cc1 (stereo not given),16
CC(C)CC(NC(=O)C(NC(=O)OC(C)(C)C)C(C)C)C(N)=O (stereo not given),9
Cn1ccc(=NC=C(C#N)C#N)c2ccccc21,3
CCCn1nnc(NC(=S)NC(=O)c2cccs2)n1,15
O=C(CN1CCOCC1)Nc1ccc2c(c1)OC(F)(F)O2,-1
COc1ccc(C(C)=O)cc1COC(=O)C(CO)NS(=O)(=O)c1ccc(Br)cc1 (stereo not given),12
COc1ccc2oc(C)c(C(=O)c3ccc([N+](=O)[O-])cc3)c2c1,21
O=c1cc(-c2cccc(F)c2)[nH]c2ccccc12,11
Cc1cc(C)nc(/N=C(/NC(=O)Nc2ccc(Cl)c(Cl)c2)Nc2ccccc2)n1,11
CNCc1sccc1C,12
O=C(COC(=O)CNC(=O)c1cccs1)Nc1ccccc1C(F)(F)F,12
Cc1cccc(C)c1Nc1nnc(SCC(=O)Nc2ncc(C(F)(F)F)cc2Cl)s1,18
CCOC(=O)N1CCN(CC(=O)N2c3ccccc3CCc3ccccc32)CC1,6
c1ccc2c(c1)CC1(CCCCC1)n1nnnc1-2,10
COc1ccc(C(=O)CSc2nnc3ccccn23)cc1OC,11
O=C(c1cc(F)c(F)cc1Cl)N1CCN(c2ccc([N+](=O)[O-])c3ncccc23)CC1,14
CCCCOc1ccc(N(CC(=O)NC(C)C)C(=O)CCC(=O)Nc2ccccn2)cc1,17
Cc1ccc(S(=O)(=O)N2CCN(C(=O)CC(C)(C)C)CC2)cc1,11
O=C(NN=C1CCCCC1)c1cc(-c2ccccc2)n[nH]1,16
Cc1cc(Cl)c(S(=O)(=O)Nc2ccc(Cl)cn2)cc1OCC(N)=O,10
Cc1nc(C)c(C(=O)NCCC(c2ccccc2)c2ccccc2)o1,20
O=C1NC(=S)S/C1=C/c1ccc(N2CCOCC2)o1,12

Not all compounds are listed; rates above refer to the full screens.
